HTT prom inh = Primary qHTS for Identification of Small Molecule Inhibitors of Huntingtin Promoter Activity | HEK293 HTT promoter firefly luciferase reporter (activity 0% = vehicle and -100% = no light), 24 h | Potency, µM (series often up to 57.5 µM), for inactives: top-dose activity change, negative = inhibition, hits mostly inhibitors | 48,000 compounds, 0.93% hits | AID 1508623, 2021; active means well fitted inhibition curve with a large enough effect; inconclusive means small, poorly fitted or top-dose-only effect; inactive means no such curve, though single readings can be large or run the other way; further: nearly all actives have a fitted effect of over 50% in size
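Luminescence was read after Dual-Glo reagent and a 10 min room-temperature incubation. Values were normalized to vehicle (0% activity) and zero RLU (-100% activity). Reporter HEK293 cells had been exposed to compounds (up to 57.5 uM final) for 24 h.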
PMP22 txn prim = Cell-based coincidence reporter assay to measure PMP22 gene transcription in S16 Pmp22-F2sN cells - Primary screen; AID 1508649, 2021; S16 Pmp22-F2sN Schwann cells (luciferase reporters placed in the Pmp22 gene), FLuc/NLuc coincidence luminescence, 24 h; 43,000 compounds, 2% hits; Potency, µM (top dose mostly 57.5 µM), without a hit: top-dose activity change, negative = inhibition, actives largely listed as inhibitors; active = clear falling dose curves in both reporters; inconclusive = both reporters move, but less clearly or upward; inactive = either reporter flat; the % is the NLuc reporter signal; further: on the % scale 0 is the no-effect control and ±100 the full control effect; some results filed as inactive show a strong effect at the top dose
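S16 Schwann cells carrying FLuc/NLuc coincidence reporter in the Pmp22 3' UTR treated with compound 24 h at 37C; FLuc then NLuc luminescence read sequentially by dual-luciferase reagents.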
Active calls of the source: *; ? = inconclusive; · = no result given; [ ] = another dose, or the depositor's remark. Potency means the concentration at half of the fitted maximal effect.

Results follow in this order: HTT prom inh, PMP22 txn prim
[1] Cn1cc(C(c2ccccc2)c2ccc(Cl)s2)c2ccccc21 (stereo not given)
    -15.3%, -4.9%
[2] CCc1ccccc1NC(=O)Nc1ccc2snnc2c1
    -23.4%, -99.4%
[3] COc1ccc(NC(=O)N2CCN(c3cc(-c4noc(C)n4)ccc3C)CC2)c(OC)c1
    -20.4%, -0.7%
[4] COc1cccc(-c2cc(C(=O)Nc3cc(OC)c(OC)c(OC)c3)on2)c1
    ?, 3.92µM*
[5] CCn1c(C(=O)N2CCCC(C(=O)N3CCN(c4ccccc4)CC3)C2)cc2sccc21 (stereo not given)
    ?, 10.2%
[6] O=C(Cn1cc(C(=O)c2ccco2)c2ccccc21)Nc1ccccc1Cl
    ?, ?
[7] Cc1ccc(NC(=O)Cn2cc(C(=O)C3CCCCC3)c3ccccc32)c(C)c1
    ?, ?
[8] CCc1nn2c(=O)cc(COC(=O)c3ccco3)nc2s1
    -10.2%, 14.6%
[9] COc1ccc(Nc2cc(C)c3cc(NC(=O)COc4cccc(C)c4)ccc3n2)cc1
    ?, ?
[10] Cc1cccc2sc(N(Cc3cccnc3)C(=O)c3cccs3)nc12
    -12.7%, 3.0%
[11] Cc1ccc(-c2nc3cccc(C)n3c2Nc2ccc3c(c2)OCO3)o1
    14.2%, -14.0%
[12] COc1ccc(CNC(=O)c2ccc3c(c2)NC(=O)C(CS(=O)(=O)Cc2ccccc2Cl)N3)cc1 (stereo not given)
    -24.1%, -16.2%
[13] Cc1ccc(Cl)cc1N1CCN(C(=O)Cc2c(C(=O)O)c(C)cn2C)CC1
    -16.9%, ?
[14] CCOc1ccccc1NC(=O)CCc1c(C)nn(-c2ccc(N3CCOCC3)nn2)c1C
    ?, ?
[15] CCOC(=O)c1ccccc1NC(=O)N1CCN(Cc2cc(=O)n3nc(-c4ccccc4)sc3n2)CC1
    -4.6%, 3.0%
[16] COc1cc(C(=O)N2CCN(CCc3ccccn3)CC2)cc(OC)c1OC
    -15.6%[11.5 µM], 9.9%
[17] COCc1cc(C)n(CC(=O)Nc2ccc(NC(C)=O)cc2)c(=O)c1C#N
    -11.1%, -19.9%
[18] Cc1c(C(=O)Nc2cccc(Cl)c2)oc2ccc(S(=O)(=O)N3CCOCC3)cc12
    -4.7%, -2.3%
[19] CCOc1ccc(-c2cc(C(=O)NCCc3ccccc3)c3c(-c4ccc(C)cc4)[nH]nc3n2)cc1
    18.4%, -49.9%
[20] CCOC(=O)C1CCN(c2c(C(=O)c3ccc(OC)cc3)cnc3ccccc23)CC1
    -10.2%, ?
[21] CCC(=O)N1CCc2cc(S(=O)(=O)NCCC(=O)Nc3ccc(C)cc3C)ccc21
    -23.9%, 10.2%
[22] Cn1c(=O)oc2cc(S(=O)(=O)N3CCCC(C(=O)NCCc4ccccc4)C3)ccc21 (stereo not given)
    -17.6%, -18.4%
[23] O=C(CCCc1ccccc1)NC1CC(=O)N(c2cccc(F)c2)C1 (stereo not given)
    -6.6%, 8.8%
[24] CCOC(=O)c1cc2c(=O)n3ccccc3nc2n(Cc2ccco2)c1=NC(=O)c1ccccc1Br
    -21.6%, ?
[25] CC(C)c1ccc(S(=O)(=O)NCc2ccc3c(c2)CCN3C(=O)c2ccccc2)cc1
    ?, ?
[26] COc1ccc2oc(=O)c(C(=O)Nc3cccc(C(=O)O)c3)cc2c1
    3.98µM*, 8.7%
[27] CNC(=O)C1CCC(Cn2c(=O)c3sccc3n(CC(=O)N3CCCC(C)C3)c2=O)CC1 (stereo not given)
    -6.0%, -0.6%
[28] CC(=O)Nc1ccc(NC(=O)c2nc(S(=O)(=O)Cc3ccc(F)cc3)ncc2Cl)cc1
    ?, 1.89µM*
[29] COc1ccc(C2(CNC(=O)C(=O)Nc3ccccc3C)CCCC2)cc1OC
    ?, 3.7%
[30] CCn1c(=O)n(-c2cccc(Cl)c2)c(=O)c2sc3ccccc3c21
    -5.8%, 0.9%
[31] COc1ccc(-n2nc(C(=O)N(C)c3cccc(C(F)(F)F)c3)c3c4ccccc4n(C)c3c2=O)cc1
    -7.3%, 11.5%
[32] Cc1ccc(NC(=O)C2CCCN(S(=O)(=O)c3c(C)n[nH]c3C)C2)c(C)c1 (stereo not given)
    -14.9%, -2.0%
[33] CCCCCOc1ccc(/C=C/C(=O)Nc2sc(C)c(C)c2C(=O)OCC)cc1OC
    1.8%, 7.13µM*
[34] COCCSc1nc2c([nH]c3ccccc32)c(=O)n1-c1ccc(OC)c(OC)c1
    -22.5%, -27.0%
[35] CCCCNc1nc(Oc2ccc(=O)n(-c3ccccc3)n2)nc(N(CC)CC)n1
    ?, ?
[36] COc1cccc(Nc2sc(C(=O)c3ccc(Cl)cc3)c(N)c2C(=O)NCCc2ccc(OC)c(OC)c2)c1
    ?, -33.0%
[37] COc1ccc(CNC(=O)Nc2cn(CC(C)C)c(=O)c3ccccc23)cc1
    -11.5%, -4.0%
[38] Cc1c(C(=O)OCC2CCCCC2)[nH]c2c1C(=O)CC(c1ccccc1Cl)C2 (stereo not given)
    -2.4%, 3.1%
[39] Cc1cccc2c1CC[C@H](CN1CCC(c3c(Cl)cccc3Cl)CC1)C[C@@H]2O
    1.7%, ·
[40] CC(C)(C)C(=O)Nc1ccccc1C(=O)OCc1cc(=O)n2ccsc2n1
    -8.9%, -10.8%
[41] CCCCOc1ccc(-c2nn(-c3ccccc3)cc2C2NC(=O)NC(C)=C2C(=O)OC)cc1 (stereo not given)
    -8.5%, -43.5%
[42] COc1ccc(OCC(=O)Nc2cc(-c3ccccc3F)nn2-c2ccccc2)cc1
    4.2%, ?
[43] CN1C(=O)Cc2cc(S(=O)(=O)N3CCN(c4cccc(C(F)(F)F)c4)CC3)ccc21
    -18.8%[11.5 µM], ?
[44] CCCCC1C(=O)N(c2ccccc2)N(c2ccc(O)cc2)C1=O (stereo not given)
    ?, ·
[45] COc1ccc(N2CCN(C(=O)CN3C(=O)COc4ccc(S(=O)(=O)N5CCC(C)CC5)cc43)CC2)cc1
    -24.6%, -7.2%
[46] CCOc1ccc(-c2nc3c(c(SCC(=O)N4CCCCC4)n2)Cc2cc(C)ccc2O3)cc1
    -18.2%, 2.0%
[47] CCOc1ccc(NC(=O)CCc2c(C)nc3nc(-c4cc(OC)cc(OC)c4)nn3c2C)cc1
    -10.5%, 6.8%
[48] CCCNC(=O)C1CCC(Cn2c(=O)c3sccc3n(CC(=O)Nc3ccccc3C)c2=O)CC1 (stereo not given)
    -3.7%, -3.4%
[49] COc1ccc(NC(=O)CN2C(=O)C(C)(C)c3cc(S(=O)(=O)N4CCCCC4)ccc32)cc1Cl
    ?, -16.0%
[50] COc1ccc(CNC(=O)CN2C(=O)CSc3ccc(S(=O)(=O)N4CCC(C)CC4)cc32)cc1
    -21.0%, 0.1%
[51] COc1ccccc1NC(=O)c1c(NC(=O)c2ccccc2Cl)sc2c1CCC2
    0.2%, -4.5%
[52] CCOC(=O)Cn1c(=O)n(C2CCCCC2)c2nc(-c3ccc(Cl)cc3)nc(C(N)=O)c21
    6.5%, -15.9%
[53] O=C(c1ccc2c(Cl)c3c(nc2c1)CCCC3)N1CCN(c2ccc(Cl)cc2)CC1
    -3.0%, 4.5%
[54] CCOC(=O)C1CCN(C(c2cccc(F)c2)c2c(O)cc(C)n(CCOC)c2=O)CC1 (stereo not given)
    -3.0%, 4.8%
[55] Cc1ccc(CNC(=O)C(=O)NCC(c2cccs2)S(=O)(=O)c2ccccc2)cc1 (stereo not given)
    -27.6%, 1.6%
[56] Cc1cccc(Cn2ccn(Cc3ccc(Cl)cc3)c(=O)c2=O)c1
    1.6%, -37.3%
[57] Cc1ccc2c(CC(=O)Nc3c(C(=O)c4ccc(F)cc4)oc4ccccc34)coc2c1
    -15.1%, 3.8%
[58] CSc1ccc(CCNC(=O)c2cc(C)nc3c2c(C)nn3-c2cccc(F)c2)cc1
    -7.3%, -2.4%
[59] CSCCC(NS(=O)(=O)c1ccc2c(c1)oc(=O)n2C)C(=O)NCc1ccc(F)cc1 (stereo not given)
    -11.8%, -19.7%
[60] CC(Sc1ncc(S(=O)(=O)c2ccc(C(C)C)cc2)c(N)n1)C(=O)Nc1ccccc1 (stereo not given)
    31.6µM*, ?

Given tab-delimited: entries from further up
nr	structure	HTT prom inh	PMP22 txn prim
54	CCOC(=O)C1CCN(C(c2cccc(F)c2)c2c(O)cc(C)n(CCOC)c2=O)CC1 (stereo not given)	-3.0%	4.8%
55	Cc1ccc(CNC(=O)C(=O)NCC(c2cccs2)S(=O)(=O)c2ccccc2)cc1 (stereo not given)	-27.6%	1.6%
56	Cc1cccc(Cn2ccn(Cc3ccc(Cl)cc3)c(=O)c2=O)c1	1.6%	-37.3%

New compounds follow:
Results follow in this order: HTT prom inh, PMP22 txn prim
[61] CC(=O)c1c(C)n(-c2ccc(C)cc2)c2ccc(OC(=O)COc3ccccc3)cc12
    -25.7%, ?
[62] COc1ccc(-c2nc3ccccc3s2)cc1NC(=O)c1ccc(F)cc1
    11.5%, -13.9%
[63] O=C(CSc1nccn1Cc1ccc(F)cc1)NCc1ccccc1
    -11.3%, 0.2%
[64] CCSc1nc2sc3c(c2c(=O)n1-c1ccc(C)c(Cl)c1)CCN(C(C)=O)C3
    -25.8%, ?
[65] Cc1ccc(C2=Nc3ccccc3N=C(c3ccc(F)cc3)C2)c(O)c1
    -3.4%, -14.6%
[66] CCOC(=O)c1ccc(NC(=O)c2c(-c3c(F)cccc3Cl)noc2C)cc1
    -25.7%, 6.0%
[67] CCc1ccc(NC(=O)C2CCN(S(=O)(=O)c3c(C)noc3/C=C/c3ccco3)CC2)cc1
    -24.1%, -9.0%
[68] Cc1ccc(Cc2nc3ccccc3nc2SCC(=O)N2CCN(c3ccc(F)cc3)CC2)cc1
    -6.3%, -1.6%
[69] Cc1ccc(CNC(=O)CN(c2ccc(Cl)cc2Cl)S(=O)(=O)c2ccccc2)cc1
    ?, ?
[70] CNC(=O)c1ccc(CSc2nc3cccnc3n2Cc2cccc(F)c2)cc1
    -12.7%, -26.9%
[71] CCc1ccc(CNC(=O)c2ccc(CSc3nc4ccncc4n3Cc3ccccc3)cc2)cc1
    ?, -12.7%
[72] Cc1cccc(NC(=O)CSc2nccn2Cc2ccc(F)cc2)c1C
    -21.6%, -31.5%
[73] CC(=O)N1c2ccccc2C(C)(c2ccc(C)cc2)CC1(C)C (stereo not given)
    -11.3%, -14.0%
[74] C#CCn1c(C2CC(=O)N(c3ccc(OCC)cc3)C2)nc2ccccc21 (stereo not given)
    12.3%, -6.5%
[75] Cc1ccccc1CSc1nc2c([nH]c3ccccc32)c(=O)n1C
    -1.1%, -13.5%
[76] CCOc1ccc(-c2cc3c(=O)n(Cc4nc(-c5ccccc5OCC)oc4C)ccn3n2)cc1Cl
    -7.0%, -19.4%
[77] Cc1ccc(C2=Nc3ccccc3N(CC(=O)Nc3ccccc3F)C(=O)C2)cc1C
    23.2%, ?
[78] COc1cccc(C(=O)c2sc3nc(-c4ccccc4)cc(C(F)(F)F)c3c2N)c1
    -24.4%, 2.5%
[79] CC(C)c1ccc(NC(=O)c2cnc3sc(N4CCOCC4)nn3c2=O)cc1
    ?, -64.4%
[80] COc1cc2ccccc2cc1C(=O)Nc1ccc2oc(-c3ccc(Cl)cc3)nc2c1
    -1.0%, ?
[81] COc1ccc(Nc2ncc(C(=O)N3CCN(c4cccc(Cl)c4)CC3)c3ccccc23)cc1
    ?, 13.5µM*
[82] Cc1ccc(NC(=O)Cn2c(=O)n(Cc3ccc4c(c3)OCO4)c(=O)c3ccc(C(=O)NC4CCCCC4)cc32)c(C)c1
    -7.1%, 8.43µM*
[83] COc1cc(C2C(C(=O)Nc3ccccc3C)=C(C)Nc3ncnn32)ccc1OCC(N)=O (stereo not given)
    -6.1%, -2.0%
[84] COCc1cc(C)nc2sc3c(c12)NC(c1ccccc1C(=O)O)N(c1ccc(OC)cc1)C3=O (stereo not given)
    17.4%, -3.3%
[85] O=C(NC1CCCCC1)c1ccc(Cn2c(SCc3ccccc3F)nc3cccnc32)cc1
    ?, -35.5%
[86] CC(C)OCCCn1c(=O)c2ccccc2n2c(-c3ccccc3F)nnc12
    -26.8%, -11.9%
[87] CC(C)c1cccc(C(C)C)c1NS(=O)(=O)c1cccs1
    -31.3%, -20.9%
[88] O=C(NCCc1ccc(Cl)cc1)C1COc2ccccc2C1 (stereo not given)
    -2.0%, 19.0%
[89] CCOC(=O)c1ccc(NC(=O)CCn2c(=O)oc3ccccc32)cc1
    -6.0%, 5.9%
[90] Cc1ccc(C)c(OCCn2c(C3CC(=O)N(Cc4ccc(F)cc4)C3)nc3ccccc32)c1 (stereo not given)
    ?, ?
[91] CCCCNC(=O)c1ccc2c(c1)NC(=O)C(CS(=O)(=O)Cc1ccc(F)cc1Cl)N2 (stereo not given)
    -17.2%, -7.8%
[92] CCC(C)NC(=O)CSc1nc2c(sc3ccccc32)c(=O)n1Cc1ccccc1Cl (stereo not given)
    -24.7%, ?
[93] Cc1ccc(C)c(C(=O)CSc2nc3cc(C(=O)NC4CCCC4)ccc3c(=O)n2CC2CCCO2)c1 (stereo not given)
    -5.5%, ?
[94] O=C(NCc1ccccc1F)C1CCCN(C(=O)N2CCOc3ccccc32)C1 (stereo not given)
    -26.8%, -22.9%
[95] COc1ccc(NC(=O)C2CCC(CNS(=O)(=O)c3cccs3)CC2)cc1OC (stereo not given)
    -2.0%, 28.2%

Assay outcomes from PubChem BioAssay.
